Compound activity from PubChem BioAssay.
Vaccinia mCherry: vaccinia inhibition (mCherry reporter); 310,000 tested, 0.63% active; AID 720579; Vaccinia virus mCherry reporter infection, fluorescence; about a quarter of the inactives have no number; Potency, µM (series often up to 36.5 µM), inactives show top-dose activity change, negative = inhibition, usual class: inhibitors; active = well fitted inhibition curve with a large enough effect; inconclusive = small, poorly fitted or top-dose-only effect; inactive = no such curve, though single readings can be large or run the other way; tested in A549 cells; note: nearly all actives have a fitted effect of over 35% in size; inactives centre near -10
VACV Venus inh: vaccinia inhibition (Venus reporter); Vaccinia virus Venus reporter expression, fluorescence; Potency, µM (highest dose often 36.5 µM), for inactives: top-dose activity change, negative = inhibition, most hits filed as inhibitors; 330,000 tested, 0.46% active; active means well fitted inhibition curve with a large enough effect; inconclusive means small, poorly fitted or top-dose-only effect; inactive means no such curve, though single readings can be large or run the other way; tested in A549 cells; note: nearly all actives have a fitted effect of over 30% in size; inactives centre near -10
Starred values were filed as active, the others as inactive; i = inactive; u = inconclusive; x = not tested or not shown; [ ] = another dose, or the depositor's remark. % is set by controls: 0 for no effect and ±100 for the full control effect; potency is the fitted concentration of half-maximal effect.

Every second line gives: VACV Venus inh | Vaccinia mCherry
CCCCn1c(N)c(N(CCC(C)C)C(=O)c2cc(CC)c(C)s2)c(=O)[nH]c1=O
→ -9% | -11%
COc1cc(C(=O)Nc2cccc(OCc3cc(=O)n4c(C)csc4n3)c2)cc(OC)c1OC
→ 2% | -3%
Cc1ccc(S(=O)(=O)CCC(=O)OCC(=O)Nc2cc(C)on2)cc1
→ -11% | i
CC(NC(=O)c1cc2c(=O)n3ccccc3nc2n(CC2CCCO2)c1=N)c1ccccc1 (centres undefined)
→ 10% | 1%
COc1ccc(NC(=O)Cn2c(SCc3ccc(F)cc3)nc3cccnc32)c(OC)c1
→ -16% | -14%
COc1ccc(S(=O)(=O)NCc2ccc(F)cc2)cc1OC
→ -8% | -5%
COc1ccc(CCC(=O)OCC(=O)c2cccc(OC)c2)cc1
→ -1% | -2%
Cc1ccc(S(=O)(=O)N(C)CCN(C)c2nc(-c3cccs3)nc3ccccc23)cc1
→ -14% | -1%
COC(=O)Nc1c(C(=O)OC)cc(OC)c(OC)c1OC
→ -11% | x
CC(NS(=O)(=O)c1cc(C(F)(F)F)ccc1Cl)C(=O)N(C)C1CCN(C)CC1 (centres undefined)
→ -6% | i
Cc1cc(N=Nc2c(O)c3ccccc3[nH]c2=O)ccc1N=Nc1ccc(C(=O)N(C)C)cc1
→ -30% | -10%
Cc1ccc(CNC(=O)c2ccc3c(c2)NC(=O)C(N2CCOCC2)S3)cc1 (centres undefined)
→ u | 0%
COC(=O)CSc1nc(NC(C)C)nc(N2CCOCC2)n1
→ -18% | x
COc1ccc(N/C=C/C(=O)C(C)(C)C)cc1
→ -9% | i
CCOCCCNC(=S)N1CCCN(c2nc3c(C)c(C)ccc3cc2C#N)CC1
→ -29% | -11%
Cc1cccc(NC(=O)CN2C(=O)c3ccccc3C2=O)c1C
→ -14% | i
Cc1cccc(CNC(=O)c2ccc3oc(=O)n(Cc4ccccc4)c3c2)c1
→ 0% | -12%
Cc1ccc(C(=O)NCC(c2ccc(F)cc2)N2CCOCC2)cc1S(=O)(=O)N1CCOCC1 (centres undefined)
→ -25% | -20%
CCNc1nc(SCC(=O)OC)nc(N(C)C)n1
→ -19% | -7%
NC(=O)c1ccccc1NC(=O)Cn1nc(Cc2cccnc2)c2ccccc2c1=O
→ -11% | -21%
Cc1cc(OC(C)C(=O)N[C@H](C(=O)O)c2ccccc2)c2c3c(c(=O)oc2c1)CCC3 (some centres undefined)
→ 0% | -1%
COc1ccc(-c2nc3cc(C(C)C)ccc3o2)cc1NC(=O)c1ccc(C)c(Cl)c1
→ -4% | -7%
CCN1CCN(c2nnc(-n3cccc3C(=O)Nc3cccc(OC)c3)s2)CC1
→ -10% | -10%
CCOC(=O)C1CN(C)CCC1=O (centres undefined)
→ -12% | x
COC(=O)c1ccc(Nc2cc(C)nc3nc(C)nn23)cc1
→ -3% | -6%
O=[N+]([O-])c1ccc(NC2CCCCC2)nc1
→ -2% | i
CCN(CC)c1ccc(NC(=O)c2cc(C)nc3c2c(C)nn3-c2cccc(F)c2)c(C)c1
→ -18% | 2%
Cc1cc(NS(=O)(=O)c2ccc(NC(=S)NC(=O)c3ccc(F)cc3)cc2)no1
→ -6% | -2%
COc1ccc(N2C(=O)CNC2=S)cc1
→ 2% | -13%
O=P(O)(O)CCP(=O)(c1ccccc1)c1ccccc1
→ -18% | i

14 of these compounds, reformatted:
canonical_smiles | VACV Venus inh | Vaccinia mCherry
CCCCn1c(N)c(N(CCC(C)C)C(=O)c2cc(CC)c(C)s2)c(=O)[nH]c1=O | -9% | -11%
COc1cc(C(=O)Nc2cccc(OCc3cc(=O)n4c(C)csc4n3)c2)cc(OC)c1OC | 2% | -3%
Cc1ccc(S(=O)(=O)CCC(=O)OCC(=O)Nc2cc(C)on2)cc1 | -11% | i
CC(NC(=O)c1cc2c(=O)n3ccccc3nc2n(CC2CCCO2)c1=N)c1ccccc1 (centres undefined) | 10% | 1%
COc1ccc(NC(=O)Cn2c(SCc3ccc(F)cc3)nc3cccnc32)c(OC)c1 | -16% | -14%
COc1ccc(S(=O)(=O)NCc2ccc(F)cc2)cc1OC | -8% | -5%
COc1ccc(CCC(=O)OCC(=O)c2cccc(OC)c2)cc1 | -1% | -2%
Cc1ccc(S(=O)(=O)N(C)CCN(C)c2nc(-c3cccs3)nc3ccccc23)cc1 | -14% | -1%
COC(=O)Nc1c(C(=O)OC)cc(OC)c(OC)c1OC | -11% | x
CC(NS(=O)(=O)c1cc(C(F)(F)F)ccc1Cl)C(=O)N(C)C1CCN(C)CC1 (centres undefined) | -6% | i
Cc1cc(N=Nc2c(O)c3ccccc3[nH]c2=O)ccc1N=Nc1ccc(C(=O)N(C)C)cc1 | -30% | -10%
Cc1ccc(CNC(=O)c2ccc3c(c2)NC(=O)C(N2CCOCC2)S3)cc1 (centres undefined) | u | 0%
COC(=O)CSc1nc(NC(C)C)nc(N2CCOCC2)n1 | -18% | x
COc1ccc(N/C=C/C(=O)C(C)(C)C)cc1 | -9% | i

2 entries drawn at random from those above, as already listed:
Every second line gives: VACV Venus inh | Vaccinia mCherry
CCN1CCN(c2nnc(-n3cccc3C(=O)Nc3cccc(OC)c3)s2)CC1
→ -10% | -10%
O=P(O)(O)CCP(=O)(c1ccccc1)c1ccccc1
→ -18% | i

The list continues.
Every second line gives: VACV Venus inh | Vaccinia mCherry
CCC(=O)NCC(c1ccco1)N1CCN(c2ccc(OC)cc2)CC1 (centres undefined)
→ -6% | -19%
Cc1ccc(C)c(N(C(=O)CS(=O)CC(=O)Nc2ccc3c(c2)OCO3)C(C)C(=O)NC2CCCC2)c1 (centres undefined)
→ -25% | -1%
Cc1ccc(NC(=O)c2sc3nc(-c4cc5ccccc5oc4=O)[nH]c(=O)c3c2C)c(C)c1
→ 5% | -5%
COc1ccccc1NC(=O)c1c(C)cc(C)nc1SCC(=O)Nc1ccc(C)c(C)c1
→ -14% | i
O=C1c2ccccc2C(O)(Cc2ccccc2)N1Cc1ccco1 (centres undefined)
→ -12% | i
CCOC(=O)C(C)Sc1nc(-c2ccccc2)nc2ccccc12 (centres undefined)
→ 6% | -14%
N#Cc1cnn(-c2ccc([N+](=O)[O-])cc2[N+](=O)[O-])c1N
→ -27% | -19%
Nc1nccc(SCc2ccccc2)n1
→ -10% | i
Cc1cccn2c(=O)c3cc(C(=O)N4CC(C)CC(C)C4)sc3nc12 (centres undefined)
→ -4% | -2%
CC(C)CCOc1ccc(C(=O)NNC(=O)CNC(=O)c2ccccc2F)cc1
→ -3% | i
COc1ccc(OC(=O)N(C)C[C@@H]2OCc3cn(nn3)CCCC(=O)N([C@@H](C)CO)C[C@H]2C)cc1
→ -2% | -17%
CC(=O)N1CCN(C(=O)c2cc3c(s2)CCCC3)CC1
→ -11% | -13%
COc1ccc(CNC(=O)Cn2c(=O)oc3ccccc32)cc1OC
→ -6% | -11%[1.46 µM]
COc1ccc(/C(C)=N/N=C(\C)c2ccc(OC)cc2OC)c(OC)c1
→ -5% | -10%
O=C(Nc1cccc(S(=O)(=O)N2CCCC2)c1)c1ccc(Cl)nc1
→ -1% | u
COc1cc([N+](=O)[O-])ccc1NC(=O)C[n+]1ccccc1
→ -8% | -10%
O=C(COC(=O)c1ccccc1)Nc1ccc(Cl)cc1C(=O)c1ccccc1
→ -11% | -1%
COc1cccc(C(=O)NCCS(=O)(=O)N2CCc3ccccc3C2)c1
→ -9% | 0%
CCN1C(=O)C(Cc2nc3ccccc3c(=O)n2-c2ccc(OC)cc2)c2ccccc21 (centres undefined)
→ -11% | -9%
CCNc1c(C(=O)O)ccc2c1C(=O)c1ccccc1C2=O
→ 6% | -12%
O=C(NNS(=O)(=O)c1ccc(F)cc1)c1cnccn1
→ -1% | -2%
COCCN1C(=O)N[C@@H](c2ccccc2)C(C(=O)OC)=C1C
→ -4% | -14%
C/C(N)=C(/C#N)C(=O)CSc1cc(Cl)ccc1Cl
→ -18% | -2%
Cc1cccc(N2C(=O)CC(Sc3nc(C)cc(C)n3)C2=O)c1 (centres undefined)
→ -2% | -15%
COc1ccc(CCNCc2c(C(=O)O)c(C)n(Cc3cccc(C)c3)c2C)cc1OC
→ -2% | -4%
O=C(COc1ccccc1)Nc1nnc(-c2ccc3c(c2)CCCC3)o1
→ -29% | -25%
Cc1ccccc1NC(=O)C1CCCN(S(=O)(=O)c2cnc[nH]2)C1 (centres undefined)
→ -5% | 3%
C/C(=N\Nc1ccccn1)c1ccc(OC(F)F)cc1
→ u | u
Nc1sccc1C(=O)NCCN1CCOCC1
→ 2% | -10%
COc1ccc(C(=O)O/N=C(\N)Cc2ccc(Cl)cc2)cc1OC
→ u | x
O=C(Nc1ccc2oc(-c3ccncc3)nc2c1)c1ccccc1Cl
→ -13% | -21%
O=C(Nc1cccc(Br)c1)c1cc(-c2ccc3c(c2)OCCO3)on1
→ -13% | -2%
COCCCNCCCCOc1cccc(Br)c1
→ -8% | i
C/C(CC(=O)NCc1ccco1)=N\NC(=O)c1ccc(Cl)cc1Cl
→ -13% | -3%
Cc1cc(NC(=O)c2ccc3c(c2)C(=O)N(C2CCCCC2)C3=O)no1
→ -4% | x
CCc1nc(SCc2nnc(-c3ccc(C)cc3)o2)c2c(C)c(C)sc2n1
→ -4% | -13%
O=C1CC(c2ccc(Cl)cc2)CC(O)=C1C=NCCO (centres undefined)
→ 4% | u
COc1cc(Cl)c(C)cc1NC(=O)c1cc2ccc3cccnc3c2[nH]1
→ -6%[7.34 µM] | -8%[7.34 µM]
COc1ccc(CCC(=O)N/N=C/c2ccc3c(c2)OCO3)cc1
→ -14% | -21%
COc1cccc(CNC(=O)c2cccnc2Sc2ccc(Cl)cc2)c1
→ -12% | -25%
COc1ccc(CNC(=O)c2c(C)oc3c2C(=O)c2ccccc2C3=O)cc1
→ 8.9µM* | 7.1µM*
COc1ccc(Br)cc1C(=O)Nc1ccc(-c2nc3cc(Cl)ccc3o2)cc1
→ -17% | -13%
CCOc1ccc(NC(=O)CCn2c(-c3ccc(F)cc3)cc(C(C)=O)c2C)cc1
→ -12% | -13%
CC(C)(C)[C@H]1C=C(C(N)=O)O[C@@H](OCCCCO)C1
→ -11% | -13%
N[C@@H]1C[C@H]1c1ccccc1
→ -15% | -3%
CCOC(=O)c1c(CN2CCN(CCO)CC2)n(-c2ccccc2)c2cc(Br)c(O)cc12
→ u | -29%
CC(=O)Nc1ccc(S(=O)(=O)N2CCC(n3c(C)nc4cccnc43)CC2)cc1
→ -1% | -13%
COc1ccc(NS(=O)(=O)c2cc(NC(=O)COc3ccc(OC)cc3)ccc2N2CCOCC2)cc1
→ -14% | -29%
CCC1CCCCN1CCCNC(=O)C1CC(=O)N(CCc2ccccc2)C1 (centres undefined)
→ -11% | 0%
CC(=O)c1nn(-c2ccc(Cl)cc2)cc1C(=O)c1ccc(C)cc1
→ -4% | u
Cc1cc2c(cc1S(=O)(=O)CCC(=O)N1CCCCC1C)OCC(=O)N2 (centres undefined)
→ 4% | 7%
O=C(O)COCC(=O)NC1CCN(Cc2ccccc2)CC1
→ 9% | i
CCOC(=O)c1ccc2c(c1)nc(SCc1cn3ccsc3n1)n2CC
→ u | x
Oc1c(C(c2ccccc2F)N2CCN(Cc3ccccc3)CC2)sc2nc(-c3ccco3)nn12 (centres undefined)
→ -2% | -3%
CCCCn1c(N)c(N(CC)C(=O)c2ccccc2C(F)(F)F)c(=O)[nH]c1=O
→ 9% | i
CCc1sc(C(=O)Nc2cccnc2)cc1Br
→ 1% | -7%
COc1ccc(-c2csc3ncnc(N4CCN(S(=O)(=O)c5cccc(C(F)(F)F)c5)CC4)c23)cc1
→ 0% | -13%
CCC(=O)N1CCc2cc(Br)cc(S(=O)(=O)NCCc3cccc(C)c3)c21
→ -14% | -10%
O=C(CCN1CCN(c2ccccc2F)CC1)Nc1ccccc1Cl
→ -2% | -8%
CCN(CC)CCSc1nc(O)c(-c2ccccc2)c(=O)n1-c1ccccc1
→ -7% | -14%

Later entries.
Every second line gives: VACV Venus inh | Vaccinia mCherry
COc1cccc(-c2c(-c3ccccc3OC)ncn2Cc2cccc(-c3ccccc3)c2)c1
→ u | u
O=C(Nc1ccccc1)Nc1nnc(Cc2ccccc2F)s1
→ -16% | -20%
CN(C)CCCN(Cc1ccccc1)C(=S)Nc1cccc(C(F)(F)F)c1
→ -15% | -7%
Cn1c(=O)c(-c2ccccc2)nn2c3ccccc3nc12
→ -2% | 1%
CC(C)c1ccc(NC(=O)C2CCCN(S(=O)(=O)c3cccnc3)C2)cc1 (centres undefined)
→ -27% | u
CC(C)c1ccc(NS(=O)(=O)c2ccc3[nH]cc(C(=O)NC4CCCCC4)c(=O)c3c2)cc1
→ -9% | -14%
COc1ccc(NC(=O)CSc2nnc(-c3ccccc3F)n2C2CC2)cc1S(N)(=O)=O
→ -9% | -13%
Cc1ccc([N+](=O)[O-])cc1S(=O)(=O)N1CCn2cccc2C1c1ccccc1F (centres undefined)
→ 1% | -10%
COc1ccc(C(CNC(=O)Cc2ccccc2Cl)N2CCCCC2)cc1 (centres undefined)
→ -19% | -10%
COc1ccccc1OCCSc1nc2ccccc2n1CC(N)=O
→ -4% | -15%
O=S1(=O)[C@H]2C[C@H](CO)O[C@@]2(CO)CN1Cc1ccc(-c2ccc(F)cc2)cc1
→ -24% | i
O=C(Nc1nccs1)c1cnccn1
→ -11% | -17%
CCN(CC(=O)Nc1cccc(S(=O)(=O)N(C)c2ccccc2)c1)Cc1cccs1
→ -20% | u
COc1cccc(C(=O)NCC(c2ccc(N(C)C)cc2)N2CCOCC2)c1OC (centres undefined)
→ -2% | -3%
CCOc1ccc(C(=O)Nc2ccc(C(=O)OCc3cc(=O)n4c(C)csc4n3)cc2)cc1
→ -14% | -4%
COC(=O)c1cc2oc3ccccc3c2n1Cc1nc(-c2ccccc2Cl)oc1C
→ -8% | -14%
